Screening results (PubChem BioAssay)
ClpP mod: qHTS Assay for Activators of ClpP; ATP-dependent Clp protease proteolytic subunit (Bacillus subtilis (strain 168)), P80244; purified B. subtilis ClpP, FRET peptide cleavage, 20 min; Potency, µM (highest dose often 57.5 µM), for the others: at the top dose activity change, negative = active; hit rate 1.9% among 340,000; active = well fitted falling curve with a large enough effect; inconclusive = small, poorly fitted or top-dose-only effect; inactive = no such curve, though single readings can be large or run the other way; note: potency is the fitted concentration of half-maximal effect; the source files actives as falling curves though it sought activators and does not explain the sign; nearly all actives have a fitted effect of over 65% in size; many hits overshoot -100%
Target sequence (P80244 whole entry, looked up): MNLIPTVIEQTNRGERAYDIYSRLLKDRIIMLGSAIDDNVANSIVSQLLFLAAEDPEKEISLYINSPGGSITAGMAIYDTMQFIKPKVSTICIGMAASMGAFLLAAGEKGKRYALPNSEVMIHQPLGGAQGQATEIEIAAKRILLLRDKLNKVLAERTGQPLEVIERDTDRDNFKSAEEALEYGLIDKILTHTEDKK
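FRET quenching reversal measured ClpP activation: 10 microg/mL B. subtilis ClpP at pH 8 with the FRET-FV decapeptide, read at 430 nm after 320 nm excitation. The 20-min minus 0-min signal was scaled between DMSO/no-enzyme wells and ADEP (5.8 microM final).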
Menin-MLL FL inh: displaces fluorescein MLL peptide from human menin; Fluorescence polarization, fluorescein-MLL peptide displacement from menin; FP activity change, % at 61.4 µM; 290,000 tested, under 10 active; inconclusive = falling polarisation curve, or a change in total fluorescence; inactive = total fluorescence flat and polarisation flat or rising; no compound was filed as active; the % refers to the polarisation; negative = inhibition;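 note: % of control where 0% means no effect; inhibitors lower the polarisation; unlabelled MLL peptide was the positive control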
TRPML1 agonist: human mucolipin-1 channel agonism | Q9GZU1 | TRPML1-expressing cells, Ca2+ dye fluorescence, FDSS; host cell line not named in the record; reference of the full effect not given here | activation, % (test concentration not listed) | hit rate 0.12% among 410,000; in the data active = activation above about 50%; inconclusive = about 30% to 50%; inactive = below about 30%; note: 0% is about no effect; the text of the record puts the active cut at 80%
Target sequence (Q9GZU1 whole entry, looked up): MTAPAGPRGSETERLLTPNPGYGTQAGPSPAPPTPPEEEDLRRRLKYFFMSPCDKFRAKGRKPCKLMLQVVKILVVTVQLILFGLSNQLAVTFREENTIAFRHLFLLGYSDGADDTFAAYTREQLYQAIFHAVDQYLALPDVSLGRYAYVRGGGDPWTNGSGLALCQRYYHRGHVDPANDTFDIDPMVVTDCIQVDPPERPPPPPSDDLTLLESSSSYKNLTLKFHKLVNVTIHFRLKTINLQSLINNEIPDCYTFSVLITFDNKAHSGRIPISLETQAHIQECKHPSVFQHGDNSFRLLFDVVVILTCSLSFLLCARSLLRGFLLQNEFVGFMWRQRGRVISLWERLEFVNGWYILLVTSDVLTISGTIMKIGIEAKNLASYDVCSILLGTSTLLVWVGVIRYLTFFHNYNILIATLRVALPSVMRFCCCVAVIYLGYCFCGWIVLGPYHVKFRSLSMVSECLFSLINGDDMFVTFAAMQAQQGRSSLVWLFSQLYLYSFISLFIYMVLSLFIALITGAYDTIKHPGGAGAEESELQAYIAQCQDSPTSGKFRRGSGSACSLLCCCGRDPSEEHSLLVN
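TRPML1-DL cells, Tet-induced overnight (~16 h, 37 degrees C), loaded 45-90 min at room temperature with Ca8 no-wash calcium dye plus quencher. FDSS fluorescence: 10 s baseline, compound pin-transfer, 110 s agonist read, then EC80 54-4 (4uM final) and 110 s antagonist read.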
gsp antag: antagonizes gsp, the McCune-Albright syndrome mutation; gsp-mutant cells, cAMP HTRF, 30 min; control for the full effect not named in the record; Potency, µM (top dose mostly 76.9 µM), for inactives: at the top dose activity change, negative = inhibition, usual class: inhibitors; hit rate 0.4% among 340,000; active = falling curve of any shape with a large fitted effect; inconclusive = falling curve, mostly with a smaller effect; inactive = flat or rising curve; cell line not stated here;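 note: intracellular cAMP measured with PDE inhibitor Ro 20-1724 present during compound exposure; potency is the fitted concentration of half-maximal effect; % is set by controls: 0 for no effect and ±100 for the full control effect; nearly all actives have a fitted effect of over 65% in size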
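HTRF cAMP read-out (cAMP-d2 plus anti-cAMP antibody-K in lysis buffer, 30 min RT). Before lysis, cells are exposed to compounds with […] for 30 min at 37C in DPBS containing Ca/Mg, BSA and Tween 20.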
gsp agonist: activates gsp, the McCune-Albright syndrome mutation | gsp mutant cells, cAMP HTRF, 30 min; control for the full effect not named in the record | Potency, µM (top dose mostly 76.9 µM), inactives show at the highest dose activation (cAMP increase), usual class: activators | hit rate 0.13% among 340,000 | AID 624287; active = well fitted activation curve with a large enough effect; inconclusive = small, poorly fitted or top-dose-only effect, or another doubt; inactive = no such curve, though single readings can be large or run the other way; cell line not stated here;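 note: phosphodiesterase inhibitor Ro 20-1724 added with compounds to block cAMP breakdown; potency is the fitted concentration of half-maximal effect; nearly all actives have a fitted effect of over 60% in size; about a fifth of the inactives were tested at one dose only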
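Cells stably selected in G418 were plated at 2000/well, grown 16-24 hr, then given compounds in DMSO with the PDE inhibitor […] (300 uM solution added) for 30 min at 37C; cAMP was read by HTRF.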
TRPML1 blocker: blocks the human TRPML1 channel; AID 624415; Q9GZU1; hit rate 0.02% among 390,000; TRPML1-inducible cells, Ca2+ dye fluorescence, FDSS; hits give low values; inhibition of EC80 agonist-evoked calcium signal; activity change, negative = inhibition, % (test concentration not listed); in the data active means activity change below about -50%; inconclusive means about -30% to -50%; inactive means above about -30%;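 note: stimulus is agonist 54-4 at its EC80 concentration; % is set by controls: 0 for no effect and ±100 for the full control effect; compound concentration not given in the record; the text of the record puts the active cut at -80%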
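TRPML1-DL cells, Tet-induced overnight (~16 h, 37 °C) at 1,500 cells/well, were loaded with Ca8 no-wash dye plus quencher for 45-90 min at room temperature. Compounds were pinned during FDSS kinetic reading; agonist 54-4 at EC80 (4 uM final) then added.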
An asterisk follows results filed as active; ? = inconclusive; · = not tested or not shown; & = joins results of further samples; [ ] = another dose, or the depositor's remark.

#	SMILES	ClpP mod	Menin-MLL FL inh	TRPML1 agonist	gsp antag	gsp agonist	TRPML1 blocker
1	CCCc1nnc(NC(=O)CC(=O)Nc2ccccc2C(=O)O)s1	-24.7%	2.2	-0.1	3.7%	-2.1%	8.8
2	COc1cc(OC)cc(C(=O)N2CCC(N3CCN(c4ccccc4OC)CC3)CC2)c1	0.8%	2.7	-1.0	-0.6%	-23.5%	-0.2
3	Cc1nc(N2CCOCC2)c2cc(-c3ccccc3)sc2n1	31.6µM*	2.4	0.6	-20.8%	42.5%	27.6
4	C#CCn1c(C2CC(=O)N(c3ccc(OCC)cc3)C2)nc2ccccc21 (configuration not stated)	0.2%	·	0.5	·	·	-14.5
5	CC(C)CC(C(=O)NC(C)(C)C)N(Cc1ccccc1Cl)C(=O)c1snc(C(N)=O)c1N (configuration not stated)	-28.3%	0.5	2.4	10.0%	-2.9%	31.7
6	O=C(CS(=O)(=O)c1ccccc1)N1CCCCCC1	-6.7%	4.6	1.0	8.1%	-11.6%	-10.7
7	COc1cc(OC)c(C(=O)NCc2ccco2)cc1OC	·	0.2	0.3	0.9%	-34.3%[inhibitor]	8.8
8	C=CCOn1c(=O)c(-c2ccc(Br)cc2)[n+]([O-])c2ccccc21	·	-0.1	1.4	-5.4%	4.6%	2.2
9	CCCN1CCOC(CC(=O)Nc2ccc([N+](=O)[O-])cc2)C1=O (configuration not stated)	·	0.7	0.6	-14.7%	-1.4%[15.4 µM]	12.3
10	Clc1ccc(-c2ncc3ccccn23)cc1	·	8.6	0.2	-10.6%	3.6%	-6.8
11	Cc1nc(/C(=N/O)C(N)=O)cs1	0.6%	11.0	·	2.8%	5.0%	·
12	Cc1c(C)n(C)c2ccc([N+](=O)[O-])cc12	-0.4%	1.9	-0.5	-7.5%	-29.8%	8.0

#	SMILES	ClpP mod	Menin-MLL FL inh	TRPML1 agonist	gsp antag	gsp agonist	TRPML1 blocker
13	CCN(CC)CC(C)OC(=O)c1cc(OC)c(OC)c(OC)c1 (configuration not stated)	-14.1%	0.3	-0.2	0.9%	0.0%	12.9
14	Cc1ccc(NC(=O)CN(c2ccccc2)S(=O)(=O)N(C)C)cc1C	-1.5%	0.8	0.7	4.4%	-34.3%[inhibitor]	-8.9
15	S=c1[nH]c2ccccc2n2cccc12	-0.4%	-1.6	3.2	15.7%	22.4µM*	-14.4
16	C=CCn1c(SCC(=O)Nc2cc(NC(C)=O)ccc2OC)nnc1-c1ccccn1	1.0%	2.0	-1.0	-10.1%	-21.9%	-4.0
17	CC(C)(C)OC(=O)N1CCC(c2c(C(=O)N3CCN(C(=O)c4ccco4)CC3)cnn2-c2cccc(Cl)c2)CC1	0.5%&-1.1%	-2.0	-0.1&-0.2	-22.7%	-38.5%[inhibitor]	5.3&0.3
18	CSc1ccccc1NC(=O)CSCc1ccc(Br)cc1	-1.5%	3.9	1.4	-5.4%	-40.8%[inhibitor]	9.5
19	CCN1C(=O)CCC(C(=O)O)C1c1ccc(OC)cc1 (configuration not stated)	·	3.9	0.0	9.1%	-11.5%[15.4 µM]	9.1
20	O=C(NCC1CCN(Cc2ccc(F)cc2)CC1)c1cc2ccc3cccnc3c2[nH]1	-3.5%	·	0.1	·	·	-2.5
21	COc1ccccc1NC(=O)c1ccccc1NC(=O)c1ccccn1	?	·	0.7	-8.3%	-4.8%	11.9
22	OCc1cnc(SCc2cccc(F)c2)n1Cc1ccc(F)cc1	-9.0%	·	0.2	·	·	-4.4
23	O=C(O)c1cc2cc(Oc3ccccc3)ccc2[nH]1	-23.3%	2.3	-0.5	6.3%	-1.0%[15.4 µM]	1.7
24	Cc1ccc(C(=O)C2CCN(CC(=O)Nc3nc(C)cs3)CC2)cc1	0.5%	1.4	0.5	1.4%	-28.7%	-2.7

#	SMILES	ClpP mod	Menin-MLL FL inh	TRPML1 agonist	gsp antag	gsp agonist	TRPML1 blocker
25	O=C(NCCNC(=O)c1ccccn1)c1ccccc1	·	-1.5	0.2	8.2%	?	-23.2
26	Cc1cc(C)n(/N=C/c2cccc(O)c2)c(=O)c1C(N)=O	-6.6%	-0.1	-0.2	2.5%	27.1%	10.0
27	Cc1ccc(C(=O)Nc2ccc(-c3nc4ccccc4s3)cc2C)cc1C	?	·	2.1	·	·	30.2
28	Cc1ccc(NC(=O)c2ccc(Cl)nc2)cc1	0.0%	-4.3	0.1	12.2%	-21.0%	-20.0
29	Cc1cccc(N(C(=O)Cn2nnc(-c3ccc(C)o3)n2)C(C(=O)NC2CCCC2)c2ccncc2)c1 (configuration not stated)	·	0.5	-0.3	-1.8%	2.3%[15.4 µM]	11.7
30	O=c1cc(N2CCC(Cc3ccccc3)CC2)[nH]c(=O)n1C1CCCCC1	-1.0%	1.8	-0.9	-8.0%	0.4%	-11.0
31	COCCCNC(=O)CC1C[C@H](C(=O)N2CCCCC2)[C@@]2(CCc3ccccc3)c3[nH]c4ccc(OC)cc4c3CCN2C1=O (some centres not stated)	-1.2%	·	-0.3	-10.7%	·	-7.8
32	O=C(O)CC/C(=N/NC(=O)c1cccs1)c1ccccc1	-17.9%	7.5	0.0	4.0%	6.1%	4.7
33	COC(=O)CNC(=O)/C=C/c1ccc(OC)cc1	-1.9%	0.4	-0.1	-8.9%	24.7%	-0.7
34	CCC(NC(=S)NCc1ccc(F)cc1)c1ccc(C(C)C)cc1 (configuration not stated)	-0.5%	5.3	3.1	-17.7%	?	-6.2
35	CCc1n[nH]c(=S)n1/N=C/c1c[nH]c2ccc(Br)cc12	·	-1.6	7.6	·	-20.3%[15.4 µM]	73.7
36	O=C(Nc1cc(S(=O)(=O)N2CCOCC2)ccc1Cl)c1cc(=O)c2ccccc2o1	1.6%	2.5	1.3	-6.1%	?	4.9

#	SMILES	ClpP mod	Menin-MLL FL inh	TRPML1 agonist	gsp antag	gsp agonist	TRPML1 blocker
37	COc1ccc(OC)c(Nc2nc(-c3sc(N)nc3C)cs2)c1	-2.0%	8.0	1.4	-5.3%	-49.8%[inhibitor]	21.8
38	CN(C(=O)COc1ccc(Cl)cc1Cl)C1(C)CCS(=O)(=O)C1 (configuration not stated)	-2.1%	·	-0.2	3.8%	1.3%	6.2
39	CCOC(=O)C1CCN(Cc2cc(=O)oc3cc(C)c(Cl)cc23)CC1	·	4.1	0.3	3.7%	22.4%	51.5
40	CCN(CC)CCN(C(=O)CCS(=O)(=O)c1ccccc1)c1nc2c(C)cc(C)cc2s1	1.1%	-7.0	0.0	3.7%	-56.1%	-6.8
41	CC1=Nc2cccc3cccc(c23)N1C	-0.7%	-0.9	-0.2	?	9.0%	24.4
42	COc1ccc(C(=O)CC(=O)C(=O)NCCc2cccc(C)c2)cc1	-4.9%	?	0.8	-7.9%	0.5%[15.4 µM]	22.5
43	COc1ccc(C(=O)n2nc(-c3cccnc3)nc2NCc2ccccc2)cc1OC	-5.7%	·	0.4	·	·	3.9
44	O=C(Nc1cccc([N+](=O)[O-])c1)c1ccc2c(c1)OCCO2	-1.4%	0.6	0.6	-11.9%	1.6%	1.7
45	COc1ccccc1CNC(=O)c1ccc(N2CCCC2)c(NC(=O)NCCC(C)C)c1	-8.9%	·	-0.9	·	·	0.4
46	COc1ccc(CCNC(=O)c2c(O)c3cccc4c3n(c2=O)CC4)cc1	-4.3%	2.2	0.3	6.6%	-31.4%[inhibitor]	-0.9
47	COc1ccc2c(c1)c(N1CCCC1=O)c(C(=O)Nc1ccccc1C(F)(F)F)n2C	-8.0%	·	1.7	·	·	-6.4
48	O=C(CCNC(=O)c1ccc([N+](=O)[O-])cc1)NCc1cccs1	-2.5%	·	-0.4	6.0%	-0.3%[15.4 µM]	7.0

#	SMILES	ClpP mod	Menin-MLL FL inh	TRPML1 agonist	gsp antag	gsp agonist	TRPML1 blocker
49	Cc1nc(C)c(C(=O)N(c2ccc(C)c(C)c2)C(C(=O)NCc2ccco2)c2ccccc2)s1 (configuration not stated)	-0.3%	2.6	-0.4	-21.0%	9.6%	-5.3
50	O=C(O)C1CCN(C(=O)c2scc3c2OCCO3)CC1	0.7%	-0.3	-0.6	6.7%	-33.2%[inhibitor]	-10.8
51	Cc1cccc(-n2nnnc2SCC(=O)NCC2(N3CCOCC3)CCCCC2)c1C	1.5%	·	2.8	-12.9%	15.8%	16.0
52	Cc1ccc(NS(=O)(=O)c2cc(C(=O)OCC(=O)NCC3CCCO3)ccc2C)cc1 (configuration not stated)	·	2.3	-1.0	5.1%	5.1%[15.4 µM]	6.6
53	COn1cnnc1-c1ccccc1	-1.3%	-1.8	-0.5	5.9%	?	1.7
54	COc1ccccc1NC(=O)CSc1nnc(CNC(=O)c2ccco2)n1C	·	1.7	-0.6	7.8%	-2.9%[15.4 µM]	-11.4
55	CC(Sc1nnc(C(C)Oc2ccc(F)cc2)o1)C(=O)NCc1ccc2c(c1)OCO2 (configuration not stated)	0.7%	·	-0.1	·	-8.8%	0.4
56	COc1ccc(NC(=O)c2cnn(-c3ccccc3)c2C)cc1	-0.7%	3.9	0.5	-6.1%	?	35.8
57	O=C(Nc1ccccc1N1CCCCC1)c1cccc([N+](=O)[O-])c1	·	-1.4	2.8	-8.2%	3.3%[15.4 µM]	15.7
58	CCCC[C@H](CN(N=O)[C@@H](Cc1ccccc1)CN(C)N=O)N(CCc1ccccc1)N=O	-0.1%	-9.3	0.4	-5.6%	·	15.9
59	C/C(=N\NC(=O)c1cccnc1)c1ccc(C)c([N+](=O)[O-])c1	0.8%	-0.3	1.2	7.9%	-2.4%	7.0
60	O=C(CNC(=O)C(c1ccccc1)c1ccccc1)OCC(=O)c1cccs1	-19.7%	3.8	2.1	-15.3%	-3.1%	4.2

#	SMILES	ClpP mod	Menin-MLL FL inh	TRPML1 agonist	gsp antag	gsp agonist	TRPML1 blocker
61	CCOc1ccccc1NC(=O)CCN1CCN(S(=O)(=O)c2ccc(OC)cc2)CC1	-28.1%	-0.3	1.6	-1.1%	3.2%	0.2
62	COC(=O)c1ccc(CS(=O)(=O)c2ccc(C)cc2)o1	-2.0%	7.7	1.4	11.3%	-2.7%	11.0
63	COc1ccc(/C(N)=C/C(=O)C(C)(C)C)cc1	-0.5%	1.3	-0.4	1.0%	-34.9%[inhibitor]	-14.2
64	CCCCNc1nc(NC)nc(Cl)c1SC	-0.7%	2.9	1.3	5.3%	23.8%	4.6
65	Cc1ccc2occ(CC(=O)Nc3c(C(=O)Nc4ccc(Cl)cc4)oc4ccccc34)c2c1	17.8µM*	·	1.3	·	·	13.4
66	Cc1cc(Nc2cccc([N+](=O)[O-])c2)c2ccccc2n1	·	-3.0	-0.7	-10.6%	28.0%[15.4 µM]	17.9
67	COc1ccc(OCc2cc(/C=N\NC(=O)c3ccccc3)ccc2OC)cc1	-13.4%	·	0.0	4.1%	?	-5.3
